Compound activity from PubChem BioAssay.
Six1-Eya2 inh – qHTS Assay for Inhibitors of the Six1/Eya2 Interaction. Homeobox protein SIX1 (Homo sapiens) + Protein phosphatase EYA2 (Homo sapiens), …. AlphaScreen GST-Six1/His-Eya2 binding, biochemical; hits give low values; control for the full effect not named in the record. activity change, % (no concentration beside the values). hit rate 0.56% among 360,000. AID 651725, 2012; in the data active = activity change below about -65%; inconclusive = about -30% to -65%; inactive = above about -30%; also: % is scaled to controls: 0 for no effect and ±100 for the full control effect; compound concentration not given in the record
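AlphaScreen luminescence read after one hour at 37 °C in darkness. Pin-transferred compounds met GST-Six1 and His-Eya2 protein (5X stock 250 nM/500 nM) plus glutathione donor and Ni-chelate acceptor beads (5X, 50 ug/mL).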
PINK1 expr mod – A Quantitative High throughput Screen to Identify Chemical Modulators of PINK1 Expression; hit rate 0.2% among 410,000; PINK1 immunofluorescence, high-content cytometry, 24 h; Potency, µM (series often up to 76.6 µM), inactives show at the top dose activation (PINK1 increase), hits mostly activators; AID 624263, 2012; active = well fitted activation curve with a large enough effect; inconclusive = small, poorly fitted or top-dose-only effect; inactive = flat fitted curve, though single readings scatter; cell line not stated here;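 also: potency is read from the fitted curve at half-maximal effect; % of control where 0% means no effect; nearly all actives have a fitted effect of over 65% in size; a mitochondrial uncoupler was the plate control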
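PINK1 protein, normally rapidly degraded, was detected by immunofluorescence after 24 hour compound treatment of a stable cell line. Titration data (5 concentrations) came from laser-scanning cytometry, with CCCP-treated wells as controls.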
CtBP-E1A inh – qHTS Assay for Inhibitors of the CtBP/E1A Interaction. CtBP / adenovirus E1A interaction (AlphaScreen). AlphaScreen GST-E1A/His-CtBP binding, 1536-well; hits give low values; control for the full effect not named in the record. activity change, % (concentration not given with the values). hit rate 0.49% among 340,000. AID 651724, 2012; in the data active means activity change below about -65%; inconclusive means about -30% to -65%; inactive means above about -30%; also: % is scaled to controls: 0 for no effect and ±100 for the full control effect
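Steps: dispense buffer (Tris pH 8.0, NaCl 300 mM, TCEP 1 mM, BSA, Tween 20); add 5X protein mix (GST-E1A, His-CtBP, 125 nM each); pin 23 nL compound; 2 h at 37 °C, dark; add 5X beads (50 ug/mL); 1 h; read.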
TRPML1 ag – qHTS for Agonists of the Human Mucolipin Transient Receptor Potential 1 (TRPML1); TRPML1-expressing cells, Ca2+ dye fluorescence, FDSS; host cell line not named in the record; reference of the full effect not given here; activation, % (no concentration beside the values); hit rate 0.12% among 410,000; AID 624414, 2012; in the data active = activation above about 50%; inconclusive = about 30% to 50%; inactive = below about 30%; also: 0% is about no effect; the text of the record puts the active cut at 80%
Target sequence (Q9GZU1 whole entry, looked up): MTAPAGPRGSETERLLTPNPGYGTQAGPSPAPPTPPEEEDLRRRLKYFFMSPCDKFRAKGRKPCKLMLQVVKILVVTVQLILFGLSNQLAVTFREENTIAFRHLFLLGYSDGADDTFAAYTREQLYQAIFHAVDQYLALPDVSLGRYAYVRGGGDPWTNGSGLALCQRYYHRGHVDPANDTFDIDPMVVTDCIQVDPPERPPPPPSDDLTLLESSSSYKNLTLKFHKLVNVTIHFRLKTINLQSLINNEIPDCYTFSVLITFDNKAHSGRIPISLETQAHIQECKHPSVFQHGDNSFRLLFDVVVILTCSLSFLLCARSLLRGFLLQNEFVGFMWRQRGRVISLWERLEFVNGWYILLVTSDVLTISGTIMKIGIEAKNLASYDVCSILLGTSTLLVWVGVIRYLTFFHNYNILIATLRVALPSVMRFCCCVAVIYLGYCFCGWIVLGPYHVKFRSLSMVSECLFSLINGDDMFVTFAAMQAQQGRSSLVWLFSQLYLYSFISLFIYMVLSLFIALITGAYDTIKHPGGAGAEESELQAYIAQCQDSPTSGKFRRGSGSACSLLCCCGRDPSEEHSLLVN
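Agonist activity was taken from a 110 s kinetic Ca2+ dye read on the FDSS after pinning compounds onto TRPML1-DL cells. The cells were seeded at 1,500/well with Tet inducer, incubated about 16 h, then dye-loaded at room temperature.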
D2 agonist – Beta-Arrestin HTS for Positive Allosteric Modulators of the Human D2 Dopamine Receptor: Agonists | hit rate 0.084% among 360,000 | DiscoveRx PathHunter D2 beta-arrestin, luminescence, 90 min; 100% = 57 uM dopamine signal | D(2) dopamine receptor (Homo sapiens), P14416 | activation, % (concentration not given with the values) | AID 624465, 2012; in the data active = activation above about 40%; inconclusive = about 15% to 40%; inactive = below about 15%; also: compound concentration not given in the record; the text of the record calls up to 30% inactive
Target sequence (P14416 whole entry, looked up): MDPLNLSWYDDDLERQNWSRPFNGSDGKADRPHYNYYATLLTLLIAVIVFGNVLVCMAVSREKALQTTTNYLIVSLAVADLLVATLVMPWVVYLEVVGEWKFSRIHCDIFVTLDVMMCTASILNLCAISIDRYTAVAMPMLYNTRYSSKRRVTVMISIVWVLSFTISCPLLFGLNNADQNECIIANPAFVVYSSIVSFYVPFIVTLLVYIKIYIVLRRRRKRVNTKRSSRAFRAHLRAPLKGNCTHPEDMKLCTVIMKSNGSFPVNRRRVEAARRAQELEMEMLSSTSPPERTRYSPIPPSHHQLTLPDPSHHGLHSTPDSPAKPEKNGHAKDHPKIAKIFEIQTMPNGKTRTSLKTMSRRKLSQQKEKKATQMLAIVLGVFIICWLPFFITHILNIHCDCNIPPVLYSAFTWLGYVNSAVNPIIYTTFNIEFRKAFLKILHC
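DiscoveRx PathHunter D2 beta-arrestin cells (2,100/well) attached overnight, then compound-stimulated 90 min at 37 C in HBSS/10 mM HEPES/0.1% Tween-20 buffer; beta-galactosidase complementation read by luminescence after 1 h at ambient temperature. Dopamine 57 uM final (EC100) as control.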
D2 PAM – Beta-Arrestin HTS for Positive Allosteric Modulators of the Human D2 Dopamine Receptor: Potentiators; hit rate 0.23% among 360,000; potentiation, % (concentration not given with the values); D(2) dopamine receptor (Homo sapiens), P14416; DiscoveRx D2 beta-arrestin cells, luminescence, 90 min; 100% = 57 uM dopamine signal; active = potentiation of 50% or more; inconclusive = 30% to 50%; inactive = 30% or less;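 also: compound concentration not given in the record; tested on top of an EC20 dose of dopamine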
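D2 cells co-treated with compound plus 50 nM dopamine (EC20) for 90 min at 37 deg C to detect potentiation. Beta-arrestin recruitment was read as enzyme-fragment luminescence after 1 h at ambient temperature. Full response was set by 57 uM dopamine.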
The depositor's hits bear a star; u = inconclusive; x = not tested or not shown; [ ] = dose if it differs, or a comment.

SMILES	Six1-Eya2 inh	PINK1 expr mod	CtBP-E1A inh	TRPML1 ag	D2 agonist	D2 PAM
CC(=O)c1ccc(NC2CC(O)C(O)CO2)cc1 (stereo not given)	7	-2.6%	3	0.9	-2.6	-12
O=C(COC(=O)Cc1c[nH]c2ccccc12)Nc1cc(S(=O)(=O)N2CCOCC2)ccc1Cl	-9	2.0%	x	-0.7	0.1	-3
CCCCN(C)CCNC(=O)CN1C(=O)CSc2ccc(S(=O)(=O)N3CCCC3)cc21	1	-1.1%	5	0.7	4.9	-17
N/C(=N/O)c1nc(N2CCCC2)nc(N(c2ccccc2)c2ccccc2)n1	-8	-0.8%	-10	-0.3	0.3	u
Cc1ccc(C(O)CCc2ccc(N)cc2)cc1 (stereo not given)	14	2.7%	0	-1.0	-0.9	-6
CCC1CCCCN1C(=O)c1ccc(OC2CCN(Cc3ccccn3)CC2)cc1 (stereo not given)	-4	0.8%	0	-0.2	2.2	-28
COC(=O)c1ccccc1NC(=O)c1cc2n(n1)C(C(F)F)CC(C(F)F)N2 (stereo not given)	5	6.8%	-1	-0.7	-0.2	-8
CN(Cc1cnccn1)C(=O)C1CCC(=O)N(CCc2ccccc2)C1 (stereo not given)	5	-0.8%	x	4.3	-3.0	1
CC(=O)N1CCc2cc(S(=O)(=O)CCC(=O)N3CCN(c4cc(C)ccc4C)CC3)ccc21	3	2.9%	-3	-0.6	0.7	-2
COc1ccc2[nH]c(C(=O)NCCN3CCCCC3)cc2c1	0	-0.4%	-5	-0.4	-6.3	-22
CCOC(=O)Cn1c(=NC(=O)C(C)(C)C)sc2cc([N+](=O)[O-])ccc21	-14	8.7%	-4	2.5	-0.6	0
CCN(CC)C(=O)Cn1cc(C(=O)C(=O)NCCCN2CCCCC2)c2ccccc21	-7	0.0%	2	0.1	-4.5	-30
COc1ccccc1CC(=O)NC1CCC(C)CC1 (stereo not given)	2	-1.3%	-22	0.5	-1.7	-3
COc1cc(C(=O)NCC2CCCO2)ccc1OCc1ccc(Cl)cc1Cl (stereo not given)	0	-1.8%	-21	2.4	3.1	-68
Cc1ccc(Cn2ccc(NC(=O)c3cc(-c4cccs4)on3)n2)cc1	4	3.4%[38.3 µM]	7	3.5	-0.8	-6
O=C(N/N=C/c1ccc(Br)s1)c1ccncc1	u	-1.7%	-21	0.1	2.4	-7
CC(=O)N1C(=O)C(=C2C=C(C)OC(C)=C2)c2ccccc21	-4	8.3%	-15	11	-1.8	-5
CC1(C)Cc2c(c(N3CCOCC3)nc3sc(C(=O)N4CCCCC4)c(N)c23)CO1	-3	0.7%	-2	-0.7	-1.9	-4
CCN1CN(Cc2ccccc2)CNC1=S	-2	-0.1%	2	0.0	-2.9	0
COc1ccc(C(=O)NNC(=O)C2=NN(c3ccccc3)C(=O)CC2)cc1	2	-1.4%	3	0.2	-0.9	-1

A different layout for 3 compounds above.
O=C(N/N=C/c1ccc(Br)s1)c1ccncc1
  Six1-Eya2 inh = u	PINK1 expr mod = -1.7%	CtBP-E1A inh = -21	TRPML1 ag = 0.1	D2 agonist = 2.4	D2 PAM = -7

CC(=O)N1C(=O)C(=C2C=C(C)OC(C)=C2)c2ccccc21
  Six1-Eya2 inh = -4	PINK1 expr mod = 8.3%	CtBP-E1A inh = -15	TRPML1 ag = 11	D2 agonist = -1.8	D2 PAM = -5

CC1(C)Cc2c(c(N3CCOCC3)nc3sc(C(=O)N4CCCCC4)c(N)c23)CO1
  Six1-Eya2 inh = -3	PINK1 expr mod = 0.7%	CtBP-E1A inh = -2	TRPML1 ag = -0.7	D2 agonist = -1.9	D2 PAM = -4

The list goes on:
SMILES	Six1-Eya2 inh	PINK1 expr mod	CtBP-E1A inh	TRPML1 ag	D2 agonist	D2 PAM
CN(C)c1cc(C(=O)N(C)c2ccccc2)ncn1	-1	1.1%	6	-0.5	-4.5	-3
COc1ccc(C(=O)NCc2ccccc2OC)cc1	3	8.6%[38.3 µM]	-1	0.1	-0.1	2
CCN(CC)c1ccc2cc(C(N)=O)c(=O)oc2c1	-8	x	-7	-0.2	-11	6
CC1CC(=O)N(CC(=O)NC2CCCCC2)c2ccccc2S1 (stereo not given)	2	-0.3%	3	-0.5	5.0	-2
COC1OC2COC(c3ccccc3)OC2C2OC12 (stereo not given)	-8	0.6%	1	-0.5	-2.6	-4
CN(C)c1ccc(NC(=O)CSc2nc(N)c(C(=O)Nc3ccc(N(C)C)cc3)s2)cc1	-7	0.4%	u	-0.2	4.8	-34
Cc1ccc2nc(SCc3nc4ccccc4c(=O)[nH]3)[nH]c2c1	0	-1.2%	2	1.6	-3.6	-8
COCCCNC(=O)c1ccccc1N(Cc1ccccc1)S(=O)(=O)c1ccccc1	6	0.2%	x	-0.9	1.9	0
C=CCn1c(SC(C)C(=O)NC2(C#N)CCCCC2)nnc1-c1ccc(OC)cc1 (stereo not given)	4	x	4	0.0	3.3	-4
COC(=O)C1=C(C)C(c2ccc(OC)cc2)NC(=S)N1 (stereo not given)	4	0.5%	14	0.5	-1.2	-2
N#C/C(=C\c1ccc(Br)s1)C(=O)N1CCN(c2ccccc2)CC1	-1	6.6%	-10	0.0	-1.9	-7
Cc1ccc(C)c(-n2c(SCC(=O)Nc3nonc3C)nnc2-c2ccoc2C)c1	-5	-2.9%	-2	-1.0	-2.8	-4
CC(C)n1c(O)c(/C=C2\C=Nc3ccccc32)sc1=Nc1ccccc1	-3	x	1	1.4	1.3	0
CCc1ccc(OCC(=O)NC2CCCCC2)c(Br)c1	3	2.4%	8	2.2	-3.9	-20
CCCCNC(=O)COC(=O)c1ccc(C)c(NC(=O)c2ccco2)c1	3	-1.6%	18	0.7	1.2	-17
COCc1[nH][nH]c(=O)c1C=Nc1ccc(C(F)(F)F)cc1	22	3.3%	x	-0.3	-2.8	-7
CC(Sc1nnc(CN2CCCC2)n1Cc1ccccc1)C(=O)Nc1ccccc1 (stereo not given)	-1	1.4%	1	2.9	4.5	-2
CN(C(=O)CSc1ncnc2sccc12)C1CCCCC1	4	5.6%	-4	2.6	-1.4	-22
O=C(CCc1nc2ccccc2c(=O)[nH]1)OCc1nnc(-c2ccccc2)o1	-3	1.0%	2	-0.1	-3.5	-8
Cc1c(Cl)cccc1-n1c(SCC(=O)N2CCC(C(=O)O)CC2)nnc1-c1ccncc1	3	2.7%	x	0.1	-5.7	-4
COc1ccc(-c2c[n+](CC(=O)c3ccccc3)c3n2CCCCC3)cc1	-3	-0.2%	x	2.3	3.7	-17
CN(Cc1ccccc1)C(=O)COC(=O)C12CC3CC(CC(Br)(C3)C1)C2	-4	4.8%	4	1.1	-2.8	-2
CCOC(=O)[C@]12CCC=C1N(Cc1ccc3c(c1)OCO3)C(=O)[C@H](CC(=O)NCc1cccc3ccccc13)C2	-9	-0.2%	-12	-0.5	x	x
Cc1ccc(OCC(=O)N2CCC(N3CCCCCC3)CC2)cc1	-1	0.7%	9	0.1	-0.8	16
O=C(c1cccc(-c2ccc(O)cc2)c1)N1CCOCC1	3	-0.6%	-2	0.7	-3.1	-4
Cc1ccc(-c2nn(-c3ccccc3)cc2/C=N/NC(=O)CSc2nnc(C)n2-c2ccccc2)cc1	-11	-1.0%	-13	1.3	-0.5	2
Cn1c(-n2c(-c3ccco3)nc3ccccc3c2=O)nc2ccccc21	-5	-2.0%	-4	-0.4	-5.2	2
COCCCn1c(SCc2cc(=O)[nH]c3ccccc23)nnc1-c1ccco1	-1	-1.6%	-1	-0.3	-1.1	3
CCN(CC)S(=O)(=O)c1cccc(-c2nnc(SCC(=O)c3cc(C)n(C)c3C)o2)c1	0	1.5%	-13	0.5	-1.3	6
CCOc1ccc(N(CC(=O)NCc2cccc(OC)c2)S(=O)(=O)c2c(C)noc2C)cc1	0	0.4%[38.3 µM]	-4	1.8	-4.6	-11
CCOC(=O)/C(=N\Nc1ccccc1Cl)N1CCN(Cc2ccccc2)CC1	2	17%	-9	2.3	-7.2	-36
C=CCn1c(O)c(N=NC(=S)Nc2cccc(C)c2)c2ccccc21	u	u	4	2.0	-7.9	-39
O=[N+]([O-])c1cccc(S(=O)(=O)N2CN(c3ccc(Br)cc3)c3nc4ccccc4nc32)c1	-4	0.0%	-1	-0.5	0.4	5
CCOc1ccccc1NC(=O)c1ccccc1N(C)S(=O)(=O)c1ccc(C)cc1	-3	4.6%	7	1.2	6.0	-4
COC(=O)CSc1nnc(-c2ccccc2O)n1-c1ccc(C)cc1	-2	-0.3%	1	1.9	0.3	16
CC(C)Nc1nc(NCCO)nc2ccccc12	-3	0.1%	2	-0.3	x	x
Cc1c(CCC(=O)O)c(=O)n2c([nH]c3ccccc32)c1C#N	-5	1.4%[38.3 µM]	-9	3.3	-1.0	-3
O=CNc1ccc(OC(=O)c2cncc(Br)c2)cc1	12	6.4%	1	0.3	-3.2	-1
C=CCn1c(SCC(=O)NC2CCS(=O)(=O)C2)nnc1-c1ccncc1 (stereo not given)	7	-0.2%	5	-1.2	-1.4	-8
O=C1CC(N2CCC(Cc3ccccc3)CC2)C(=O)N1CCc1ccccc1 (stereo not given)	-6	-4.9%[38.3 µM]	6	1.7	4.4	2
CC(=O)N(c1ccccc1)c1nnc(-c2cnc(C)cn2)s1	3	-0.4%	10	-0.3	-5.6	-9
CN1C(C(=O)NCc2ccco2)=CC(c2ccc(F)cc2)=NS1(=O)=O	2	-0.7%	x	1.0	-2.7	-8
O=C(O)CC/C(=N\NC(=O)CNC(=O)c1ccc(F)cc1)c1ccccc1	8	2.5%	x	-0.6	0.0	-14
COc1ccc(C(NC(=O)/C=C/c2ccco2)c2ccc(OC)cc2)cc1	-14	14%	2	2.0	-6.8	-17
CCCOc1ccc(C(=O)CCNC(Cc2c[nH]c3ccccc23)C(=O)O)cc1 (stereo not given)	-6	4.9%	x	7.8	0.4	-1
O=C(NCc1ccc(F)cc1)C(Cc1ccccc1)NS(=O)(=O)c1cccs1 (stereo not given)	3	x	-4	-0.4	-0.5	24
CCOc1ccc(S(=O)(=O)N2CCN=C2Cc2ccccc2)cc1C	1	2.0%	0	2.2	5.2	2
O=C(c1ccc2nc(N3CCOCC3)sc2c1)N1CCCC1	-3	2.2%	6	-1.0	-0.5	0
COc1ccc(NC(C)=O)cc1S(=O)(=O)NC1CCSc2ccccc21 (stereo not given)	-9	-2.7%	0	0.4	-2.2	-7
Cc1ccnc(NS(=O)(=O)c2ccccc2)n1	7	u	5	1.2	4.1	-3
CC(Nc1ncnc2sccc12)c1ccccc1 (stereo not given)	7	0.4%	10	1.0	11	1
CCOC(=O)c1csc(N/N=C2\CCCc3ccccc32)n1	-3	4.8%	x	-0.7	-4.0	12
